Rango complex inh – Rango-importin beta binding inhibition; Q14974; Rango CFP/YFP FRET sensor + importin beta, 45 min; Potency, µM (highest dose often 92.2 µM), without a hit: at the highest dose inhibition of complex formation; 0.031% of 340,000 active; active = rising FRET ratio curve, often small or poorly fitted; inconclusive = mostly compound fluorescence or quenching in the first reads; inactive = flat curves in all reads;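 note: potency is the fitted concentration of half-maximal effect; 0% = DMSO wells and 100% = buffer wells lacking importin beta; nearly all actives have a fitted effect of over 15% in size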
Target sequence (Q14974 whole entry, looked up): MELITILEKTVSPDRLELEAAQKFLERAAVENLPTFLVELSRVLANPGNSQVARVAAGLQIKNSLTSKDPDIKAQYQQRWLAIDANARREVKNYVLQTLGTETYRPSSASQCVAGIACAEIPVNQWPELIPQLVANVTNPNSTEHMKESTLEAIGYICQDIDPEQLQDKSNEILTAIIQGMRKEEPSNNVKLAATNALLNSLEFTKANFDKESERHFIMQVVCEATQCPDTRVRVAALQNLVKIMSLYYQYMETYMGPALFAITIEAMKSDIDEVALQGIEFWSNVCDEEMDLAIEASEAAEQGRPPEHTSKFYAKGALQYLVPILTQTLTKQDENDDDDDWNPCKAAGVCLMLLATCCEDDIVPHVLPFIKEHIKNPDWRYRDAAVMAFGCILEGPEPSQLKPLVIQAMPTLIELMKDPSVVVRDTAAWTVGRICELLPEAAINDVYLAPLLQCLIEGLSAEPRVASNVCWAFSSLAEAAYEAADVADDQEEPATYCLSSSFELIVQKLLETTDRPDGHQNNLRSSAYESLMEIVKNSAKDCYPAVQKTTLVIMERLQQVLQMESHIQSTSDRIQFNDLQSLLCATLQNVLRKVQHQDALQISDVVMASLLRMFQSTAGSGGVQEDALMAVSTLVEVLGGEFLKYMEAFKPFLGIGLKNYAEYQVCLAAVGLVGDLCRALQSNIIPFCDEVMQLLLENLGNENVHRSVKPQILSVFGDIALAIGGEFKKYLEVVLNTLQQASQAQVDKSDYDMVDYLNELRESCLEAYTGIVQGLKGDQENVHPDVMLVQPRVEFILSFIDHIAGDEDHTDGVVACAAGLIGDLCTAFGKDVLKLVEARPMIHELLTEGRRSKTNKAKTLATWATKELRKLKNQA
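FRET biosensor Rango (snurportin 1 IBB between N-terminal EYFP and C-terminal Cerulean), 50 nM in PBS/1 mM DTT/0.02% Tween-20/0.1% BSA, preincubated 5 min RT with compound; 0.125 microM importin beta added, 45 min RT, CFP/YFP FRET ratio read.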
miR-21 FLuc – raises the signal of a miR-21 reporter; HeLa miR-21 FLuc reporter, luciferase, 48 h; Potency, µM (doses to about 38.3 µM), inactives show top-dose reporter change, positive = more light; 340,000 tested, under 10 active; active = well fitted rising curve with a large enough effect; inconclusive = small, poorly fitted or top-dose-only effect; inactive = no such curve, though single readings can be large or run the other way;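 note: % of control where 0% means no effect; miR-21 action dims this reporter so a rising signal means less miR-21 action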
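Compounds were titrated across several concentrations (up to approximately 40 uM) and incubated 48 hours with HeLa miR-21-FLuc reporter cells (miR-21 target sequence downstream of FLuc, endogenous miR-21). Readout was firefly luciferase luminescence after lytic detection reagent.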
Rango dissoc inh – inhibitors of RanGTP-induced Rango-importin beta complex dissociation. O95149+P62826. AID 540253. Potency, µM (top dose mostly 46.1 µM), without a hit: top-dose activity change, negative = inhibition. Biochemical FRET Rango-importin beta, RanGTP-induced dissociation. 0.071% of 340,000 active; active means falling FRET ratio curve, often poorly fitted, with flat reads before Ran was added; inconclusive means other falling curves, or compound fluorescence or quenching; inactive means flat or rising ratio curve;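 note: potency is the fitted concentration of half-maximal effect; % of control where 0% means no effect; nearly all actives have a fitted effect of over 45% in size; -100% = wells without RanGTP and RCC1; the record marks most hits as doubtful in a second field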
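Rango FRET biosensor (snurportin-1 IBB flanked by N-terminal EYFP and C-terminal CFP10) at 0.1 uM, with 0.25 uM importin beta in PBS, 1mM DTT, 0.02% Tween-20, 0.1% BSA. 0.6 uM Ran, 2mM GTP and 0.2 uM RCC1 were then added for 45 min at room temperature. Inhibition read as loss of FRET rise.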
GLA inh pH 4.5 – inhibitors of human alpha-galactosidase A at pH 4.5. P06280. purified enzyme, 4-MU-alpha-Gal fluorescence, pH 4.5. activity change, negative = inhibition, % at 105 µM. 230,000 tested, under 10 active; inconclusive = small, poorly fitted or top-dose-only inhibition, or a rising curve; inactive = flat fitted curve, though single readings scatter; no compound was filed as active;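 note: 0% = full activity with enzyme and -100% = basal without enzyme; dose as in the result columns while the protocol names 77 µM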
Active calls of the source: *; ? = inconclusive; · = not tested or not shown; & = joins results of further samples; [ ] = dose if it differs, or a comment. The list is partial, so the mix of outcomes need not match the whole.

SMILES	Rango complex inh	miR-21 FLuc	Rango dissoc inh	GLA inh pH 4.5
Fc1ccccc1-n1cc(-c2ccccc2)[nH]c1=S	-4.7%	-22%	7%	-4
Cc1cccc(NC(=O)C2CCN(c3ncnc4c3nc3n4CCCCC3)CC2)n1	0.7%	14%	2%	·
Oc1ccc(Cl)cc1C=NN1CCCCCC1	0.9%	·	3%	·
CCN(CC)C(=O)C(C)N(C#N)c1nc(NC(C)C)nc(NC(C)C)n1 (stereo not given)	0.0%	-8%	-2%	-2
CCOc1ccc(S(=O)(=O)NCc2ccc3c(c2)OCO3)cc1NC(C)=O	-0.3%	2%	2%	·
CCOC(=O)C1CCN(C(=O)CC(NS(=O)(=O)c2ccc(OC)cc2)C(C)C)CC1 (stereo not given)	-0.5%	1%	-13%	0
O=C(NNC(=O)c1cc2ccccc2o1)c1ccc(Cl)cc1	0.6%	-4%	0%	-10
O=C(c1ccc(Br)cc1)N1CCN(c2ncccn2)CC1	-3.2%	·	-11%	·
FC(F)(F)c1ccc(Oc2ccc3cc(Br)ccc3c2)nc1	1.2%	-9%	2%	-6
COc1ccc(C(=O)NC2CCN(C(=O)NC3CCCCC3)CC2)cc1	4.2%	0%	-4%	-2
O=[N+]([O-])c1cc(/C=N/O)ccc1N1CCCC1	-2.0%	-10%	-4%	0
O=C(Nc1ccc(Cl)cc1)Nc1ccc(Cl)c(Cl)c1	3.2%	·	-6%	·
O=C(NCc1n[nH]c(=S)n1-c1ccc([N+](=O)[O-])cc1)c1ccc(S(=O)(=O)N2CCOCC2)cc1	0.3%	-3%	-9%	7
Cc1ccc(OCC(O)CN2C(=O)NC(C)(C)C2=O)c(C)c1 (stereo not given)	6.5%	-8%	-6%	10
Cc1ccc(NC(=O)CCc2nnc3ccc(NCc4ccco4)nn23)cc1	-0.9%	-16%	-2%	·
COc1cccc(NC(=S)N(CCc2ccc(OC)c(OC)c2)Cc2ccccn2)c1	4.1%	-3%	0%	-11
COc1ccc(N2CCN(Cc3cc(=O)oc4cc(C)c(Cl)c(C)c34)CC2)cc1	-1.4%	-2%	-3%	11
O=c1c2cccc3c(N4CCOCC4)ccc(c32)c2nc3ccccc3n12	·	-13%	·	-3
COC(=O)c1c(-c2ccc(OC)cc2)sc2ccc(OC)cc12	2.5%	·	1%	·
O=C(NCc1nc2ccccc2[nH]1)C1=C[C@H](c2ccc3c(c2)OCO3)C[C@H](OCCCCO)O1	0.8%	-4%	0%	1
CCCCC(C(=O)NC1CCCC1)N(Cc1ccccc1)C(=O)c1snc(C(N)=O)c1N (stereo not given)	1.1%	14%	1%	·
Cc1ccc(C)c(N(C(=O)c2csnn2)C(C(=O)NC2CCCC2)c2cccnc2)c1 (stereo not given)	0.4%	0%	-10%	·
CN=c1scc(-c2ccc(Br)cc2)n1C	-0.1%	-1%	-6%	8
COc1ccc(N(C(=O)c2ccco2)C(C(=O)NC2CCCC2)c2ccc(N(C)C)cc2)cc1OC (stereo not given)	4.7%	-18%	1%	-3
CSc1ccc(CNc2ccc(C)c(C)c2)cc1	0.3%	-41%	4%	-24
CC(C)c1cc(=O)n2c(nc3ccccc32)[nH]1	-0.4%	-29%	5%	·
Cc1ccc(C(=O)Nc2ccn(C)n2)cc1	0.0%	·	2%	·
NC(=O)C1c2ccccc2CSc2ccccc21 (stereo not given)	?	-5%	-23%	-8
O=C(O)COc1ccc(/C=N/n2cnc3scc(-c4cccs4)c3c2=O)cc1	-2.9%	0%	-15%	1
COc1ccc(N2C(=O)CSC23C(=O)Nc2ccccc23)cc1OC (stereo not given)	-2.6%	6%	10%	-11
CC[C@]12c3[nH]c4ccc(Cl)cc4c3CCN1C(=O)[C@@H](CC(=O)NC/C=C(\C)CCC=C(C)C)C[C@@H]2C(=O)N1CCN(C(=O)C2CC2)CC1	0.1%	·	-5%	·
CCC(C)[C@H](N)c1nnc(SCC(=O)c2ccc(Cl)cc2)o1 (stereo not given in full)	-3.7%	-4%	16%	8
OCC(O)/C=N/Nc1nc2ccccc2s1 (stereo not given)	-5.1%	-37%	13%	3
Cc1cc(C)c(N=C2C(=O)Nc3ccccc32)c(C)c1	3.4%	-1%	9%	·
CC(Sc1nnc(C(F)(F)F)n1C)C(=O)Nc1ccc(S(N)(=O)=O)cc1 (stereo not given)	-0.1%	-2%	-2%	-9
Cc1ccc(NC(=O)N2CCc3ccccc32)cc1C	-4.9%	-21%	-19%	-1
O=C(CN1CCN(c2ccccn2)CC1)Nc1ccccc1	-3.5%	-2%	-3%	4
CSc1ccccc1NC(=O)c1cc(-c2cccs2)on1	-1.9%	-54%	-2%	1
Cc1noc(C)c1S(=O)(=O)N1CCC(C(=O)NCCN2CCC(C)CC2)CC1	0.0%	-2%	-5%	-3
CCOc1ncccc1C(=O)N(C)CC(=O)Nc1ccc(F)cc1	-2.7%	0%	-14%	8

Given with two lines to a compound: part of the list above.
The line under a structure holds: Rango complex inh, miR-21 FLuc, Rango dissoc inh, GLA inh pH 4.5
CSc1ccc(CNc2ccc(C)c(C)c2)cc1
    0.3%, -41%, 4%, -24
CC(C)c1cc(=O)n2c(nc3ccccc32)[nH]1
    -0.4%, -29%, 5%, ·
Cc1ccc(C(=O)Nc2ccn(C)n2)cc1
    0.0%, ·, 2%, ·
NC(=O)C1c2ccccc2CSc2ccccc21 (stereo not given)
    ?, -5%, -23%, -8
O=C(O)COc1ccc(/C=N/n2cnc3scc(-c4cccs4)c3c2=O)cc1
    -2.9%, 0%, -15%, 1
COc1ccc(N2C(=O)CSC23C(=O)Nc2ccccc23)cc1OC (stereo not given)
    -2.6%, 6%, 10%, -11
CC[C@]12c3[nH]c4ccc(Cl)cc4c3CCN1C(=O)[C@@H](CC(=O)NC/C=C(\C)CCC=C(C)C)C[C@@H]2C(=O)N1CCN(C(=O)C2CC2)CC1
    0.1%, ·, -5%, ·

(more compounds)
SMILES	Rango complex inh	miR-21 FLuc	Rango dissoc inh	GLA inh pH 4.5
Cc1ccc(OCCOCCN2CCN(C)CC2)c(C(C)(C)C)c1	4.6%	-4%	6%	·
CC1CC(C(O)c2ccccn2)C(=O)C(C(O)c2ccccn2)C1 (stereo not given)	-6.0%	·	-8%	·
COCc1cc(C)c2c(N)c(C#N)sc2n1	-4.2%	-24%	-10%	11
CS(=O)(=O)N(CC(=O)NCCSCc1ccccc1)c1ccccc1F	-1.8%	1%	-20%	·
O=C(OCc1c(-c2ccccc2)ncc2ccccc12)c1cccc(Br)c1	-2.1%	·	39%	·
COC(=O)C1=NNC2C(=O)N(c3ccc(C)cc3)C(=O)C12 (stereo not given)	-3.1%	0%	0%	-12
O=C(CCSCCC(=O)NCc1ccccc1)NCc1ccccc1	-0.1%	-1%	1%	9
Cc1c(C(=O)O)cccc1-c1ccc(C=O)o1	0.1%	-25%	-10%	-2
CCn1c(SCC(=O)OC)nnc1-c1ccncc1	0.4%	-7%	-8%	-5
O=C(COC(=O)CCN1C(=O)C2CC=CCC2C1=O)Nc1ccc([N+](=O)[O-])cc1 (stereo not given)	-0.8%	·	-5%	·
FC(F)(F)c1cc(-c2ccccc2)nc(NCC2CCCO2)n1 (stereo not given)	-2.2%	-10%	1%	-11
CC(=O)Nc1ccc(NC(=O)c2c(-c3ccccc3Cl)noc2C)cc1	-1.2%	1%	6%	·
O/N=C/c1cc(Br)cs1	-2.3%	-2%	-12%	-12
COc1ccc(S(=O)(=O)N(C)C)cc1NC(=O)CCNC(=O)c1ccccc1OC	-1.9%	1%	0%	·
COc1ccc(CC(=O)Nc2cccc(-c3nnc(-c4ccco4)o3)c2)cc1	-5.8%	17%	-9%	12
COC(=O)c1ccccc1NC(=O)NC1CCCC1	6.0%	0%	-1%	9
COc1ccc(OCC(=O)c2c[nH]c3ccccc23)cc1	0.8%	-33%	17%	1[21.1 µM]
Cc1[nH]c2ccc(C(=O)NCCCN3CCCCC3)cc2c1C	0.1%	-7%&3%	-18%	·
CCOc1ccc(OCC(=O)OCc2cc(=O)n3cc(Br)ccc3n2)cc1	0.0%	·	5%	·
COc1nc(N2CCCC2)nc(-n2nnc(C(C)=O)c2C)n1	2.5%	3%	-15%	3

Gathered by group, the compounds so far containing a nitro group on carbon (3)
SMILES	Rango complex inh	miR-21 FLuc	Rango dissoc inh	GLA inh pH 4.5
O=[N+]([O-])c1cc(/C=N/O)ccc1N1CCCC1	-2.0%	-10%	-4%	0
O=C(NCc1n[nH]c(=S)n1-c1ccc([N+](=O)[O-])cc1)c1ccc(S(=O)(=O)N2CCOCC2)cc1	0.3%	-3%	-9%	7
O=C(COC(=O)CCN1C(=O)C2CC=CCC2C1=O)Nc1ccc([N+](=O)[O-])cc1 (stereo not given)	-0.8%	·	-5%	·

Additional entries follow.
SMILES	Rango complex inh	miR-21 FLuc	Rango dissoc inh	GLA inh pH 4.5
OC1CCN(c2c3c(nc4cc(-c5cccc(F)c5)nn24)CCCC3)CC1	4.9%	-33%	0%	-23
CO[C@@H]1[C@@H](OC(N)=O)[C@@H](O)C(Oc2ccc3c(O)c(NC(=O)c4ccc(O)c(CC=C(C)C)c4)c(=O)oc3c2C)OC1(C)C (stereo not given in full)	5.4%	·	6%	·
CCn1c(=O)cc(SCC(=O)Nc2cccnc2)c2ccccc21	4.6%	0%	0%	2
CCOC(=O)N1CCN(c2cc(N3CCN(CC)CC3)c(F)cc2[N+](=O)[O-])CC1C (stereo not given)	4.8%	24%	-3%	-11
Cc1cccc(-n2ncc3c2CCCC3NC(=O)Cc2c(C)noc2C)c1C (stereo not given)	?	12%	0%	·
O=[N+]([O-])c1cccc(C=Nc2cc3c(cc2Br)OCCO3)c1	2.9%	-4%	-15%	1
CCN(c1cc(C)cc(C)c1)S(=O)(=O)c1nnc(NC(=O)C(C)(C)C)s1	-0.7%	5%	1%	·
COc1ccccc1Nc1nc(-c2ccc([N+](=O)[O-])cc2)nc2ccccc12	0.3%	·	4%	·
Cc1nn(-c2ccccc2)c2c1C(=O)NC(=O)C(C)(C)C2	0.0%	-9%	0%	-1
NC(=S)c1cc2ccc(O)cc2oc1=O	?	-10%	?	21
Cc1ccc(-c2noc(Cn3cc(S(=O)(=O)N4CCCC4)ccc3=O)n2)cc1	-0.8%	·	8%	·
CCOC(=O)c1nn(-c2ccc(F)cc2)c(=O)cc1OCC(=O)Nc1ccc(OCC)cc1	1.8%	·	-3%	·
CCOC(=O)c1c(S(=O)(=O)N2CCCC2)c(C)n(C)c1C	1.6%	1%	6%	·
CC(=O)N1CCN(c2ccc(NC(=O)c3cccc(Cl)c3)cc2)CC1	-2.4%	-28%	-12%	·
CC(C)(C)c1ccc(C(CC(=O)O)NC(=O)CSc2ccccc2)cc1 (stereo not given)	1.8%	-3%	-1%	2
O=C(COC(=O)c1nsc(Cl)c1Cl)NC1CCCC1	0.0%	-4%	2%	·
C#CCOc1c(Cl)cc(C2C3=C(CCCC3=O)N(CC(=O)O)C3=C2C(=O)CCC3)cc1OC	?	0%	?	·
O=C(c1cccc(OC(F)F)c1)N1CCN(c2ncccn2)CC1	-0.7%	-5%	3%	-7
CCOC(=O)C(C)(C)N(Cc1ccccc1C)S(=O)(=O)c1ccc(Cl)c([N+](=O)[O-])c1	0.4%	3%	-18%	4
CCN(CC(=O)NCc1cccs1)C(=O)c1ccc(NS(=O)(=O)c2cccc([N+](=O)[O-])c2)cc1	2.3%	·	2%	·
CCN(CC(=O)Nc1c(F)cccc1F)C(=O)/C=C/c1ccc(S(=O)(=O)N2CCCCCC2)cc1	2.4%	·	-16%	·
Cc1ccc(-n2nc3cc(C)c(NC(=O)c4cccnc4)cc3n2)cc1	-1.2%	-38%	16%	-5
CC(=O)c1cc(C#N)c(SCC(=O)OC(C)(C)C)nc1C	-0.2%	-45%	-8%	0
O=C(COc1ccc(/C=N/NC(=O)c2ccccc2O)cc1)Nc1ccc([N+](=O)[O-])cc1	1.9%	-12%	8%	-2
Cc1cc(NC(=O)CSc2nnnn2-c2ccc(C)c(C)c2)no1	5.6%	0%	-16%	3

Screening results (PubChem)
